High-throughput results deposited in PubChem by several laboratories.
Arbovirus anti: arbovirus infection inhibition; hit rate 0.37% among 200,000; inhibition, % at 10 µM; arbovirus infection cell-based antiviral screen;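 active = inhibition from about 30%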;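 also: bluetongue infection of BSR cells; cell survival read as ATP light after 72 h; 0% = infected wells without compound and 100% = uninfected wells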
YopH inh: inhibitors of Yersinia enterocolitica YopH tyrosine phosphatase. fluorescence Ex485/Em525. inhibition, %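 (about 10 µM by stock and volumes)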. hit rate 0.16% among 140,000. AID 898;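 active = inhibition of 50% or more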;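 also: controls were vehicle for no effect and minimum signal wells for full effect; inactives centre near -20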
Mtb growth: M. tuberculosis H37Rv growth inhibitors, H37Rv strain (AID 1626) | M. tuberculosis H37Rv growth inhibition; higher % means a stronger effect | inhibition, % at 10 µM, or IC50 in µM where a hit was titrated | hit rate 0.95% among 220,000;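 active = confirmed in a dose series; inconclusive = inhibition above 80% but not taken into the dose series; inactive = below 80% or under 30% at every dose of the series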;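 also: bacteria incubated seven days before Alamar blue readout; 0% = bacteria only wells and 100% = bacteria with antibiotic wells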
Mtb bLac sens: beta-lactam sensitization of Mtb H37Rv; inhibition, % at 25 µM; hit rate 0.27% among 330,000; M. tuberculosis H37Rv growth with meropenem, percent inhibition; hits of this screen are not shown here;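 active = about 74% or more and at least 40 points above the plate without the antibiotic, then above 30% in a dose series; inconclusive = first-round hits that could not be retested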;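 also: growth measured after seven days incubation then overnight dye step; 0% = bacteria only wells and 100% = bacteria with antibiotic; twin plates without the antibiotic show which effects depend on it; some results filed as inactive read as strong as hits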
RecA intein inh: Mtb RecA intein splicing inhibition; P9WHJ3; cell-free RecA intein splicing, fluorescence; inhibition, %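 (about 9 µM by stock and volumes)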; hit rate 0.75% among 290,000; in the data active = inhibition above about 30%; inconclusive = no clear call, values can overlap the other calls;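 also: 0% = vehicle wells and 100% = reference inhibitor control wells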
Target sequence (P9WHJ3 whole entry, looked up): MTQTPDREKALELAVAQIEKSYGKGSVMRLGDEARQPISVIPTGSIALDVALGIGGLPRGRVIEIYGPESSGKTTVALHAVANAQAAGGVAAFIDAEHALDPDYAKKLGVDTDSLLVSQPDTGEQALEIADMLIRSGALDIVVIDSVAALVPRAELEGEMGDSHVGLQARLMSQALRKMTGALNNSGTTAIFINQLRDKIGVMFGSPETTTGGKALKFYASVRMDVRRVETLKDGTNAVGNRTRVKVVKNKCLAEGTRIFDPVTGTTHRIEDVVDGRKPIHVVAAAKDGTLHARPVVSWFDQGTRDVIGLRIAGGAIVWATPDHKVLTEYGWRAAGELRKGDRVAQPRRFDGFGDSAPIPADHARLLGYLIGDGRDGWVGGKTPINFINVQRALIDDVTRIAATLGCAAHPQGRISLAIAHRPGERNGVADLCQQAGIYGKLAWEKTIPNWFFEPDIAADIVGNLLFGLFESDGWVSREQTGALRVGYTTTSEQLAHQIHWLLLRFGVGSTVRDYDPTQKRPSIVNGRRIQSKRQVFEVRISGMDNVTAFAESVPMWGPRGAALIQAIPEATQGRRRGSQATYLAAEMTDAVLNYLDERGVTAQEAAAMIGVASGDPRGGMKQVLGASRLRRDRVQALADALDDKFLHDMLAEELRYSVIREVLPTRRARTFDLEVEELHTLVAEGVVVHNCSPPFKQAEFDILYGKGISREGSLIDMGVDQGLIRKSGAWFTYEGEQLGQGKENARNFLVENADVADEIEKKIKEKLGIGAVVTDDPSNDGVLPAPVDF
Arbovirus anti repeat: also measured in Arbovirus anti; calls as there; inhibition, %; measured here: 10K subset replicate screen; many hits read low in the repeat;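 first of two repeat runs on a subset; 0% = infected and 100% = uninfected wells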
Active calls of the source: *; u = inconclusive; x = not tested or not shown.

SMILES | Arbovirus anti | YopH inh | Mtb growth | Mtb bLac sens | RecA intein inh | others
CCc1nc2sc3ccccc3c(=O)c2c(=O)n1Cc1ccco1 | 4 | -12 | -2% | -14 | 4.2
CCC(=O)c1ccc(OCC(O)CNCCc2ccc(Cl)cc2)cc1 (stereo not drawn) | x | x | x | 0 | 0.9
O=C1CC(N2CCC(Cc3ccccc3)CC2)C(=O)N1CCc1ccccc1 (stereo not drawn) | 30* | -13 | 13% | -12 | 4.8
CSc1nc2ccccc2cc1/C=C(\C#N)c1ccccc1 | -20 | -28 | 4% | 7 | 6.8
C=CCOc1c(CNc2cccc(C(=O)O)c2)cccc1OCC | -2 | -42 | 1% | 4 | 0.0
Cn1c(=O)c(C(=O)N2CCc3ccccc32)cc2cccnc21 | x | x | x | 0 | 0.8
COc1ccc(N2CCCn3c2nc2c3c(=O)n(CCN3CCOCC3)c(=O)n2C)cc1 | x | x | -3% | 0 | -1.5
O=C(COC(=O)CNC(=O)c1ccccc1F)Nc1cccc(S(=O)(=O)N2CCCCCC2)c1 | 2 | x | 1% | 6 | 0.3
COc1cccc(C(=O)Nc2ccc(C(F)(F)F)n(C)c2=O)c1 | -1 | -8 | 3% | -2 | x
CCOc1ccccc1N1CC(C(=O)N2CCOCC2)CC1=O (stereo not drawn) | x | x | x | 7 | 1.2
CC1=CSC2=NC(=O)/C(=C/c3cccc(OC(=O)c4ccco4)c3)C(=N)N12 | 4 | -13 | 22% | 59 | 3.2
CC(C)(C)NC(=O)C(c1cccs1)N(Cc1cccs1)C(=O)c1ccc(CN2CCOCC2)o1 (stereo not drawn) | 1 | x | -3% | -5 | 0.4
O=C(CNC(=O)c1cccc(Cl)c1)NCCCSc1ccccc1 | x | x | x | -4 | -0.1
CCn1c(CCCNC(=O)c2ccc(F)cc2)nc2ccccc21 | -1 | -21 | 0% | -5 | 0.0
CCCc1cc(C(=O)Nc2cnn(Cc3ccc(F)cc3)c2)no1 | x | x | 0% | -1 | -0.5

The final 3 compounds of the part before are carried over, then new ones follow.
SMILES | Arbovirus anti | YopH inh | Mtb growth | Mtb bLac sens | RecA intein inh | others
O=C(CNC(=O)c1cccc(Cl)c1)NCCCSc1ccccc1 | x | x | x | -4 | -0.1
CCn1c(CCCNC(=O)c2ccc(F)cc2)nc2ccccc21 | -1 | -21 | 0% | -5 | 0.0
CCCc1cc(C(=O)Nc2cnn(Cc3ccc(F)cc3)c2)no1 | x | x | 0% | -1 | -0.5
O=C(NN=C1C2CC3CC(C2)CC1C3)c1cc(Cl)ccc1O | 3 | -36 | 4% | 10 | -1.2
CC(C)(C)n1ncc2c(=O)n(CC(=O)NCc3ccco3)cnc21 | 0 | -17 | 4% | 3 | -0.3
CN(C)S(=O)(=O)N1CCN(c2ccc([N+](=O)[O-])c(N3CCOCC3)c2)CC1 | -2 | x | 6% | -1 | 3.3
O=C(NCCN1CCOCC1)c1ccccc1Oc1ccccc1 | 3 | 18 | -3% | -2 | 0.6
C/C(=N/NC(=O)C1CCN(S(=O)(=O)c2ccc(C)cc2)CC1)c1cccc([N+](=O)[O-])c1 | -1 | -24 | -10% | 0 | -4.0
CCCCC(CC)CNC(=O)Cn1c(=O)[nH]c2ccsc2c1=O (stereo not drawn) | -5 | x | -7% | 0 | -0.6
COc1ccnc(Oc2ccc(F)cc2)c1C#N | 2 | x | 3% | -5 | 4.8
O=C(c1cccc(F)c1)N1CCC(O)(c2cccnc2)CC1 | 6 | 7 | -2% | -3 | -1.4
Cc1cc(C)c2c(N)c(C(=O)c3ccc(Cl)cc3)sc2n1 | -18 | 5 | 2% | -2 | -2.6
CCn1c(SCc2ccc(F)cc2)nc2ccccc2c1=O | x | x | x | 79 | -0.1
COC(=O)c1ccc(CSc2nnc(Nc3cccc(OC)c3)s2)o1 | 3 | -7 | 10% | 3 | 2.1
N#CC1=C(N)OC2=C(CC/C2=C\c2ccc(F)cc2)C1c1ccc(F)cc1 (stereo not drawn) | 7 | -2 | 9% | 6 | -4.3
COc1cc(NC(=O)C2CCCO2)c(OC)cc1NC(=O)c1ccccc1 (stereo not drawn) | -2 | -23 | 48% | 96 | 0.6
CCC(=O)c1ccc(OCC(=O)O)cc1 | 9 | -18 | 2% | x | 0.7
CC1CCN(C(=O)c2[nH]cnc2C(=O)NCC(=O)OCc2ccccc2)CC1 | x | x | x | 1 | 0.8
CNc1nc(NCc2ccccc2)nc(N)c1[N+](=O)[O-] | x | x | x | -3 | -2.4
COc1ccccc1NC(=O)CN(Cc1ccco1)C(=O)c1ccc(=O)[nH]c1 | x | x | 8% | -1 | 1.1
CCOCCc1nnc(NC(=O)CN2C(=O)c3ccccc3C2=O)s1 | 5 | -13 | -6% | -1 | -0.7
Cc1cc(=O)oc2cc(NC(=O)c3ccnn3C)ccc12 | x | x | x | 1 | -0.7
Cc1ccc(-n2cc[nH]c2=S)c(C)c1 | 4 | x | -6% | 3 | 1.1
NC(=O)NCc1cccs1 | 3 | x | 3% | -2 | 1.3
CCOc1ccc(C(=O)CN2CCN(S(=O)(=O)c3ccc(OC)cc3)CC2)cc1 | -1 | -23 | 6% | -10 | -17
O=S(=O)(NCC1CCCO1)c1ccc(Br)s1 (stereo not drawn) | 4 | -21 | 5% | -14 | x
O=C(CSc1nnc(-c2ccccc2)c2ccccc12)NCC1CCCO1 (stereo not drawn) | 8 | x | 4% | -4 | 6.6
CCc1cccc(NS(=O)(=O)c2ccc3c(c2)oc(=O)n3C)c1 | 10 | -26 | x | -1 | 0.8
O=C(O)COc1ccccc1/C=C1\SC(=S)N(NC(=O)c2ccccc2O)C1=O | x | x | x | -1 | -3.8
COc1ccc(CC(=O)NC2CC2)cc1OC | x | x | x | -10 | 7.6
O=C(NN1C(=O)C2C3c4ccccc4C(c4ccccc43)[C@@H]2C1=O)c1ccccc1 (stereo partly drawn) | 2 | 0 | 7% | 1 | -3.7
C=CCN1C=CC(=O)CC1 | x | x | -5% | -12 | 1.3
Cc1cc2ccccn2c1C(=O)Nc1ccccc1 | -1 | x | -5% | 5 | 1.0
CC(C)(C)NC(=O)C(c1ccco1)N(C(=O)Cn1nnc(-c2ccc(F)cc2)n1)c1cccc(F)c1 (stereo not drawn) | 8 | -12 | x | -12 | x
Cc1cc(=O)oc(C)c1C(=O)Nc1ccc2nsnc2c1 | 6 | -49 | -8% | 1 | 0.9
O=[N+]([O-])c1cc(S(=O)(=O)N2CCCC2)ccc1N/N=C/c1cccs1 | -2 | -11 | -3% | 8 | 0.3
COc1ccc(C(c2nnnn2CC2CCCO2)N2CCN(c3ccccc3)CC2)cc1 (stereo not drawn) | 11 | -37 | 2% | -10 | -1.6
NC(=O)c1cc(S(=O)(=O)NCc2ccc(Br)cc2)cs1 | x | x | x | 1 | -1.8
Cc1cc(C(=O)Nc2sc3c(c2C#N)CCCC3)no1 | -13 | -11 | 1% | 60 | 2.0
CN(C)CCNc1nc(-c2ccccc2)nnc1C(F)(F)F | 4 | -35 | 1% | -11 | -7.3
O=C(CCCc1ccccc1)NCc1cccnc1 | 1 | -1 | 4% | 4 | -2.4
O=C1CSC(c2cccc([N+](=O)[O-])c2)N1c1ccccc1F (stereo not drawn) | -1 | x | 1% | -10 | -0.5
CCSc1nnc(NC(=O)CSc2nnc(CNC(=O)c3cc(OC)c(OC)c(OC)c3)o2)s1 | 0 | -22 | 0% | 6 | -3.5
CC(C)(C)C(=O)NC(=S)Nc1ccccc1N1CCCC1 | 10 | x | 0% | 1 | -1.8
O=C1CNC(=S)N1Cc1ccccc1Cl | x | x | x | 6 | -2.3
COc1ccc(NC(=O)c2ccc3nc(-c4ccccc4)c(-c4ccccc4)nc3c2)c(OC)c1 | 10 | -20 | 2% | 3 | 0.2
CN(C(=O)c1ccno1)c1nnc(-c2cnccn2)s1 | 2 | 2 | -10% | -9 | -1.3
CSCCNC(=O)c1ccc2nc(C3CCCCC3)oc2c1 | x | x | x | 66 | 0.0
Cc1cc(C)n2c(=O)c3ccc(Cl)cc3nc2c1C#N | 2 | x | 4% | 4 | -1.2
Cn1cc(Cl)c(C(=O)Nc2nc3ccc([N+](=O)[O-])cc3s2)n1 | -6 | x | 2% | 4 | -0.9
Cn1ncc(Cl)c1C(=O)Nc1ccc(CN2CCCCC2)cc1 | x | x | x | -8 | -0.6
Cc1ccc2c(CN3CCN(S(=O)(=O)c4ccc5c(c4)OCCO5)CC3)cc(=O)oc2c1C | -22 | -15 | 6% | -9 | 5.6
O=C(OC1CCCCC1)c1ccc(NC(=O)c2ccco2)cc1 | 2 | -43 | 17% | 18 | 1.3 | Arbovirus anti repeat=-4
CCCc1cc(=O)oc2c3c(c4c(c12)OC(C)(C)C=C4)OC(C)C(C)C3O (stereo not drawn) | x | x | 77% | 86 | 13
CCOC(=O)c1sc2nccc(OC)c2c1N=CNOC | 4 | x | -11% | 4 | -1.2
Cc1onc(C(=O)Nc2ccccc2C(F)(F)F)c1[N+](=O)[O-] | x | x | x | 2 | 1.5
NNC(=O)c1nnn(-c2nonc2N)c1CN1CCCC1 | x | x | x | 1 | 0.6
Cc1ccc(CSc2nnc(SCC(=O)N/N=C/C=C/c3ccco3)s2)cc1 | -5 | -29 | x | 88 | 2.1
COc1ccccc1N1C(=O)c2cccc3c(Cl)ccc(c23)C1=O | x | x | x | -5 | -2.1
O=c1[nH]c(N2CCCCC2)nc2c1CCCC2 | 13 | 7 | -8% | 3 | 3.0
Cc1nc2ccccc2c2c(N)c3ccccc3n12 | 17 | x | 53% | 31 | -9.3
CC(=O)c1ccc(OCC(=O)c2cc(C)n(-c3ccc4c(c3)OCO4)c2C)cc1 | 12 | -16 | 10% | 47 | -0.2
Nc1ccnn1-c1ccccc1 | x | x | -2% | -1 | -0.1

Going on with the list:
SMILES | Arbovirus anti | YopH inh | Mtb growth | Mtb bLac sens | RecA intein inh | others
Cc1nc2nc(COc3ccccc3)[nH]n2c(=O)c1Cl | 5 | -47 | -17% | u | 1.5
CC(=O)c1ccc(OCc2cc(C(=O)N3CC4C[C@@H]5CC3C[C@H](C4)C5)no2)cc1 | x | x | x | 4 | 4.5
O=C(Cn1ccc2ccccc2c1=O)NCC(=O)N1CCN(c2ccc(F)cc2)CC1 | x | x | x | 1 | 0.9
O=C(Oc1nsnc1N1CCOCC1)c1ccccc1 | -3 | -7 | -3% | -8 | 5.0
COc1cc(/C=C2\SC(N)=NC2=O)ccc1OCC(=O)Nc1ccc(C)cc1 | 2 | -25 | 62% | 14 | -3.5
CC1(C)Cc2cccc(OCC(=O)Nc3ccccc3C(F)(F)F)c2O1 | x | x | x | -10 | -1.8
Cc1ccc(S(=O)(=O)N(CC(=O)NCC2CCCO2)Cc2cccc(C)c2)cc1 (stereo not drawn) | x | x | x | -11 | 0.8
CCc1nc2ccccc2n1Cc1cc(=O)n2cc(C)ccc2n1 | 7 | -19 | -5% | 2 | x
Cc1nnc(NC(=O)c2ccc(S(=O)(=O)N3CCCCC3C)cc2)o1 (stereo not drawn) | x | x | x | 90 | 0.0

Compounds from the list above that have a Cl atom:
SMILES | Arbovirus anti | YopH inh | Mtb growth | Mtb bLac sens | RecA intein inh | others
CCC(=O)c1ccc(OCC(O)CNCCc2ccc(Cl)cc2)cc1 (stereo not drawn) | x | x | x | 0 | 0.9
O=C(CNC(=O)c1cccc(Cl)c1)NCCCSc1ccccc1 | x | x | x | -4 | -0.1
O=C(NN=C1C2CC3CC(C2)CC1C3)c1cc(Cl)ccc1O | 3 | -36 | 4% | 10 | -1.2
Cc1cc(C)c2c(N)c(C(=O)c3ccc(Cl)cc3)sc2n1 | -18 | 5 | 2% | -2 | -2.6
O=C1CNC(=S)N1Cc1ccccc1Cl | x | x | x | 6 | -2.3
Cc1cc(C)n2c(=O)c3ccc(Cl)cc3nc2c1C#N | 2 | x | 4% | 4 | -1.2
Cn1cc(Cl)c(C(=O)Nc2nc3ccc([N+](=O)[O-])cc3s2)n1 | -6 | x | 2% | 4 | -0.9
Cn1ncc(Cl)c1C(=O)Nc1ccc(CN2CCCCC2)cc1 | x | x | x | -8 | -0.6
COc1ccccc1N1C(=O)c2cccc3c(Cl)ccc(c23)C1=O | x | x | x | -5 | -2.1
Cc1nc2nc(COc3ccccc3)[nH]n2c(=O)c1Cl | 5 | -47 | -17% | u | 1.5

This is a subset; count on the stated rates, not on these rows.
